Assay outcomes as filed in PubChem BioAssay.
Six1-Eya2 inh – inhibitors of human Six1/Eya2 interaction; Q15475+O00167; AlphaScreen GST-Six1/His-Eya2 binding, biochemical; active compounds read low; control for the full effect not named in the record; activity change, % (concentration not given with the values); hit rate 0.56% among 360,000; in the data active = activity change below about -65%; inconclusive = about -30% to -65%; inactive = above about -30%; further: on the % scale 0 is the no-effect control and ±100 the full control effect
Target sequence (O00167 whole entry, looked up): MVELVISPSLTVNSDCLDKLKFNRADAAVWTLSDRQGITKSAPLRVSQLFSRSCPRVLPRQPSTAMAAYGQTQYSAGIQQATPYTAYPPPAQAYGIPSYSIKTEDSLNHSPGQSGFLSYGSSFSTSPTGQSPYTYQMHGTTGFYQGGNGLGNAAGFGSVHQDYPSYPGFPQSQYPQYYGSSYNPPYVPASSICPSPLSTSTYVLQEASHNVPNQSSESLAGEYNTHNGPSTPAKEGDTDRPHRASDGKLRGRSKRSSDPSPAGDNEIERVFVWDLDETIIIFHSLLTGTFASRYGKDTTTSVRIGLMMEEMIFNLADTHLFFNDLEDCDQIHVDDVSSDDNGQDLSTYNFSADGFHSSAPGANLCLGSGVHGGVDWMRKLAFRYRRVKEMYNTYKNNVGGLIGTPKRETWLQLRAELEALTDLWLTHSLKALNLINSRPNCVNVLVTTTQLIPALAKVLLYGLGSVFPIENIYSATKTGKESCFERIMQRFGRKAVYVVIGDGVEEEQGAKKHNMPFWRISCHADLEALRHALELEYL
Target sequence (Q15475 whole entry, looked up): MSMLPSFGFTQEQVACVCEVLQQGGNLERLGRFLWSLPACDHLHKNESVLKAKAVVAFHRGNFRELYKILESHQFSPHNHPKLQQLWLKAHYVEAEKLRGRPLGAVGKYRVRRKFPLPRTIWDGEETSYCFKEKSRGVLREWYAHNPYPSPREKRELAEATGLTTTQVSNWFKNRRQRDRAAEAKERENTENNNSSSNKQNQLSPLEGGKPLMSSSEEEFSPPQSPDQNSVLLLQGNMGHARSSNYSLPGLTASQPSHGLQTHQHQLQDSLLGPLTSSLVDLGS
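Homogeneous AlphaScreen proximity assay pairing GST-Six1 with His-tagged Eya2 (added as 5X mix: 250 nM and 500 nM) in 50 mM Tris pH 8.0, 300 mM NaCl, 1 mM TCEP. Glutathione donor and nickel acceptor beads; 1 h, 37 °C, dark.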
TRPML1 ag – activates the human TRPML1 channel. Q9GZU1. hit rate 0.12% among 410,000. TRPML1-expressing cells, Ca2+ dye fluorescence, FDSS; host cell line not named in the record; reference of the full effect not given here. activation, % (no concentration beside the values). AID 624414; in the data active = activation above about 50%; inconclusive = about 30% to 50%; inactive = below about 30%; further: 0% is about no effect; the text of the record puts the active cut at 80%
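Tetracycline-induced TRPML1-DL cells are seeded and incubated overnight before loading with a no-wash Ca2+ dye and quencher. Agonist activity is taken from the 110 s fluorescence read following compound pin-transfer on an FDSS, before EC80 54-4 challenge.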
CtBP-E1A blk – blocks the CtBP interaction with E1A. AlphaScreen GST-E1A/His-CtBP binding, 1536-well; active compounds read low; control for the full effect not named in the record. activity change, % (test concentration not listed). hit rate 0.49% among 340,000. AID 651724; in the data active means activity change below about -65%; inconclusive means about -30% to -65%; inactive means above about -30%; further: on the % scale 0 is the no-effect control and ±100 the full control effect
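GST-E1A and His-tagged CtBP (125 nM each as 5X stock) were preincubated with pin-transferred compound for 2 h at 37 °C in the dark, then glutathione donor and nickel acceptor beads were added for 1 h before AlphaScreen reading.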
D2 PAM – potentiates the human D2 dopamine receptor allosterically. hit rate 0.23% among 360,000. AID 624464. DiscoveRx D2 beta-arrestin cells, luminescence, 90 min; 100% = 57 uM dopamine signal. potentiation, % (concentration not given with the values); active = potentiation of 50% or more; inconclusive = 30% to 50%; inactive = 30% or less;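 further: compound concentration not given in the record; tested on top of an EC20 dose of dopamine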
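PathHunter D2 cells, attached overnight at 37 deg C, received compound in DMSO plus dopamine at EC20 (50 nM final) for 90 min at 37 deg C. Beta-arrestin recruitment was read as luminescence after 1 h with detection reagent at ambient temperature.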
D2 agonist – activates the human D2 dopamine receptor | P14416 | DiscoveRx PathHunter D2 beta-arrestin, luminescence, 90 min; 100% = 57 uM dopamine signal | activation, % (test concentration not listed) | hit rate 0.084% among 360,000 | AID 624465; in the data active = activation above about 40%; inconclusive = about 15% to 40%; inactive = below about 15%; further: compound concentration not given in the record; the text of the record calls up to 30% inactive
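DiscoveRx PathHunter D2 beta-arrestin cells (2,100/well) attached overnight, then compound-stimulated 90 min at 37 C in HBSS/10 mM HEPES/0.1% Tween-20 buffer; beta-galactosidase complementation read by luminescence after 1 h at ambient temperature. Dopamine 57 uM final (EC100) as control.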
PINK1 expr mod – changes PINK1 expression; PINK1 immunofluorescence, high-content cytometry, 24 h; Potency, µM (series often up to 76.6 µM), for inactives: at the top dose activation (PINK1 increase), hits mostly activators; hit rate 0.2% among 410,000; active = well fitted activation curve with a large enough effect; inconclusive = small, poorly fitted or top-dose-only effect; inactive = flat fitted curve, though single readings scatter; cell line not stated here;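 further: potency means the concentration at half of the fitted maximal effect; % of control where 0% means no effect; nearly all actives have a fitted effect of over 65% in size; a mitochondrial uncoupler was the plate control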
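Stable cell line, 250 cells/well, 12 h attachment; compounds pinned at 5 concentrations, 24 h; CCCP control. Fixed with nuclear dye, primary antibodies 12 h at 10 degrees C, secondary plus cell stain; laser-scanning cytometer read.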
* marks the source's active call; other numbers are inactive results; ? = inconclusive; / = not tested or not shown; & = joins results of further samples; [ ] = another dose, or the depositor's remark.

SMILES	Six1-Eya2 inh	TRPML1 ag	CtBP-E1A blk	D2 PAM	D2 agonist	PINK1 expr mod
O=C(NNC(=O)c1cc2c(s1)CCCC2)c1ccccc1	1	0.1	/	-5	0.9	1.2%
CN(C)C(CNC(=O)c1ccc(S(=O)(=O)Nc2ccccc2F)cc1)c1ccco1 (stereo not drawn)	1	-0.2	20	-31	-0.5	1.2%
CCOc1ccc(C(=O)N2CCCN(C(=O)c3ccc(OCC)cc3)CC2)cc1	1	-0.5	6	-5	-0.4	/
COC(=O)c1nnn(CC(=O)NC(=O)Nc2ccccc2)c1C(=O)OC	14	0.3	8	-3	-1.4	-1.3%
CCc1cc(=O)oc2cc(OCc3nn[nH]n3)ccc12	2	0.0	3	-9	-1.1	0.8%
CN1C(=O)c2ccc(NC(=O)C3CC3)cc2C1=O	10	-0.4	2	-7	-2.0	2.8%
CCNc1nc2c(c(=O)[nH]c(=O)n2C)n1CCCc1ccccc1	-9	/	/	30	3.9	1.0%
COc1ccc(C(=O)Nc2nnc(-c3ccccc3)s2)cc1	-16	0.4	10	-6	1.2	14%
CC(=O)c1cc(C#N)c(N2CCOCC2)nc1C	0	1.5	3	-2	3.8	-3.4%
CC(C)(C)c1ccc(OCC(=O)NNC(=O)c2cccnc2)cc1	3	0.6	-2	3	0.0	-1.4%
CCCCN(CCCC)S(=O)(=O)c1ccc2oc(C(=O)N3CCOCC3)c(C)c2c1	-1	3.7	2	-8	-2.9	0.5%[38.3 µM]
CC(=O)Oc1ccc(/C=N/NS(=O)(=O)c2ccccc2)cc1	-1	-0.5	4	3	4.5	0.8%
CSc1ccc(Cn2c(C)c(C(=O)NCCC#N)sc2=O)cc1	0	-0.7	0	-6	-3.8	-0.9%
Cc1ccc(S(=O)(=O)N2CCOCC2)cc1NC(=O)CN1C(=O)NC(C)(c2ccc(Cl)cc2Cl)C1=O (stereo not drawn)	-6	1.7	-5	-1	1.5	1.0%
O=C(CCCn1c(=O)c2sccc2n(CC(=O)OCc2ccccc2)c1=O)NCc1ccco1	-2	-0.1	-4	-4	-0.7	0.1%[38.3 µM]
O=C(COC(=O)/C=C/c1ccco1)Nc1cc(S(=O)(=O)N2CCOCC2)ccc1Cl	-1	1.1	-18	-8	-0.7	-0.5%
CC(C)C(=O)Nc1ccc(Sc2ccc(F)cc2)cc1	-3	0.6	5	4	-0.5	1.9%
Cc1cc(C)cc(S(=O)(=O)c2cnc3ccccc3n2)c1	-3	-0.2	2	-11	0.4	-1.8%
Cc1ccc(NC(=O)Cn2nnc(-c3ccccc3NC(=O)c3cccs3)n2)cc1	-1	-0.4	3	-11	-3.0	2.2%
CCC1CCCCN1C(=O)CN1C(=O)CSC1=O (stereo not drawn)	26	0.2	2	-12	-2.2	2.2%
Cc1cccc(-c2cc3nc(-c4ccccc4)cc(N4CCC5(CC4)OCCO5)n3n2)c1	76	1.6	61	-2	-4.1	9.4%
O=C(Nc1ccccc1)NC1(C(=O)N2CCN(c3ncccn3)CC2)CCCCC1	3	0.9	3	-12	0.5	2.9%
C[C@H](CO)N1C[C@H](C)[C@@H](CN(C)C(=O)NC2CCCCC2)Oc2c(NC(=O)Nc3ccc4c(c3)OCO4)cccc2C1=O	0	2.1	2	-2	2.4	6.7%
COc1cccc(N(C(=O)Cn2nnc(-c3ccc(Cl)cc3)n2)C(C(=O)NCC2CCCO2)c2ccc(C)cc2)c1 (stereo not drawn)	4	1.2	/	15	-3.3	4.7%
CC(=O)N1C(C(=O)O)CSC1c1ccc(C)cc1 (stereo not drawn)	0	0.2	8	-4	-0.6	-0.9%
(list continues)
SMILES	Six1-Eya2 inh	TRPML1 ag	CtBP-E1A blk	D2 PAM	D2 agonist	PINK1 expr mod
CC1C=CCC2C(=O)N(c3cccc(C(=O)N4CCN(c5ccc(F)cc5)CC4)c3)C(=O)C12 (stereo not drawn)	-4	-0.2	-9	-6	-1.5	-3.1%[38.3 µM]
Cc1ccc(/C=C(\NC(=O)c2ccccc2)C(=O)NC2CCN(Cc3ccccc3)CC2)o1	?	0.5	-3	-30	-1.2	0.3%
CS(=O)(=O)c1ccc(-c2nnn(CC(=O)N3CCCCC3)n2)cc1	0	-0.4	4	1	5.0	1.8%
Cc1ccc(NC(=O)CCCN2C(=O)c3cccc4cccc(c34)C2=O)cc1	9	-0.3	5	-8	-3.8	4.5%
Oc1c(C(c2ccco2)N2CCC3(CC2)OCCO3)sc2ncnn12 (stereo not drawn)	-3	0.0	6	3	1.0	-0.3%
Cc1ccc(C#N)c(SCC(=O)Nc2nccs2)n1	-14	0.7	/	-3	-4.1	7.5%
CN1CCN(C(=O)CCn2nc(-c3ccccc3)c3ccccc3c2=O)CC1	2	-0.7	1	-31	-2.8	-0.4%
O=C(COC(=O)/C=C/c1cn(-c2ccccc2)nc1-c1ccc2c(c1)OCCO2)NC1CCS(=O)(=O)C1 (stereo not drawn)	1	1.0	0	0	3.6	0.4%
COc1ccc(-c2csc(=Nc3ccccc3)n2CCO)cc1	-26	-0.5	?	-6	4.0	0.1%
Cc1nn(-c2ccc(F)cc2)c2c1cc(C#N)c1nc3ccccc3n12	-1	-1.2	2	-5	-0.9	-0.7%
Cc1noc(C)c1C(=O)NCCc1c(C)[nH]c2ccccc12	-1	-0.1	-1	5	3.7	-0.6%
Nc1nnc(C(F)(F)F)s1	-21	1.7	/	-10	-6.2	1.0%
Cn1c(=O)c(C(=O)CSc2ccccc2)c(N)n(Cc2ccccc2)c1=O	1	1.4	15	6	4.2	9.9%
O=C(CNS(=O)(=O)c1ccccc1)OCC(=O)c1ccccc1Cl	3	-0.4	4	2	-3.8	-0.3%
O=C1Nc2cc(Cl)ccc2C1(N1CCNCC1)C(F)(F)F (stereo not drawn)	0	-0.4	10	-5	-1.6	-0.1%
O=c1[nH]cc([N+](=O)[O-])cc1Br	6	-0.1	-9	16	-7.2	2.6%
C[C@H](NC(N)=O)C(=O)N1CCN(S(=O)(=O)c2ccc3ccccc3c2)CC1	0	-0.1	-1	-3	-4.9	8.6%
Cc1cc(C)n(-c2nnc(N3CCN(c4ccc(F)cc4)CC3)nn2)n1	3	0.2	-8	0	-2.5	1.2%
C[C@@H]1NC(=O)N[C@@H]1CCCCCC(=O)O	-6	-0.3	-8	-5	2.6	1.7%
O=C(NC(=O)N1CCCCCC1)c1ccccc1	-3	0.3	0	-14	-2.5	0.0%
O=C(OCc1cccc(F)c1)c1ccc2c(=O)n3c(nc2c1)CCC3	-1	1.0	0	-4	-0.2	-0.5%
Cc1ccccc1C(=O)Oc1cccc(Nc2ncnc3ccccc23)c1	0	-0.1	6	6	-1.0	0.0%
Cc1ccc2c(c1)C1CC(C)(O2)N(c2cccc(C(=O)NC3CCN(Cc4ccccc4)CC3)c2)C(=O)N1 (stereo not drawn)	-3	-0.4	-9	-37	-3.4	0.0%
CCN(C[C@H]1N[C@@](CC)(C(=O)OC)[C@H]2C(=O)N(Cc3ccccc3)C(=O)[C@@H]12)S(=O)(=O)c1ccc(F)cc1	-2	0.2	2	/	1.2	-0.4%
O=C(CSc1ncccn1)Nc1ccc(N2CCOCC2)cc1	13	0.5	-3	-11	2.9	-1.7%
Next part:
SMILES	Six1-Eya2 inh	TRPML1 ag	CtBP-E1A blk	D2 PAM	D2 agonist	PINK1 expr mod
Cc1ccccc1NC(=S)NC1CCCC1	1	-0.1	-5	-5	4.0	-0.6%
Cc1ccc(CN2CCC(n3nccc3NC(=O)C3CCOC3)CC2)cc1C (stereo not drawn)	5	-0.2	3	-27	-0.7	0.8%
CN(C)S(=O)(=O)n1cc(/C=C(\NC(=O)c2ccccc2F)C(=O)NCCN2CCOCC2)c2ccccc21	-3	-0.5	1	-12	6.5	0.1%
Cc1cccc([N+](=O)[O-])c1NC(=O)CSc1nnc2ccccn12	0	-0.9	/	-10	-4.2	0.8%
CCc1cccc(NC(=O)CCC(=O)N2CCSc3ccccc32)c1	0	2.9&0.7	1	-2	-0.6	-2.1%&1.7%
CCOc1ccc(/C=C(\C#N)C(=O)NCC2CCCO2)cc1OCC (stereo not drawn)	-5	-1.3	-66*	-8	-5.1	0.7%
CCOC(=O)C1(Cc2cccc(F)c2)CCN(C(=O)Cc2cccnc2)CC1	-5	0.5	4	-4	-2.5	2.4%
CCC(C)NC(=O)CNS(=O)(=O)c1ccc(C)cc1 (stereo not drawn)	1	-0.4	0	0	0.6	-2.9%
O=C1C(=Cc2ccco2)C(=O)c2ccccc21	-7	7.1	-3	17	4.8	4.2%
COc1cc(/C=C/C(=O)OCC(=O)NCCc2ccccc2)cc(OC)c1OC	-5	-0.7	0	-9	-1.5	1.6%
Cc1cc2c(c(=O)n1CCN(C)C)C(c1ccccc1Br)C(C#N)=C(N)O2 (stereo not drawn)	-2	-0.1	0	-28	-1.8	1.1%
O=[N+]([O-])c1ccc2nc(C3CCCCC3)[nH]c2c1	19	0.2	4	-9	-0.4	2.0%
O=C(NC1CC2CCCC(C1)N2C(=O)NCc1ccccc1)C1CC1 (stereo not drawn)	8	-0.5	2	-1	-1.6	-0.2%
CC(=O)Nc1cc(-c2cccc(C(=O)NCCN(C)C)c2)cn2c(-c3cccc(C(F)(F)F)c3)cnc12	2	0.0	-23	-7	5.6	-1.2%
CC(=Nc1cc(C(=O)c2ccccc2)ccc1N)C1=C(O)CC(C)(C)CC1=O	-2	1.2	0	-8	-0.2	0.0%
CCOC(=O)c1c(NC(=O)Cn2cnc([N+](=O)[O-])n2)sc(C)c1C	4	2.1	-2	6	6.9	1.8%
Cc1ccc(NC(=O)CCCCCNS(=O)(=O)c2ccc(C)cc2)cc1	6	0.7	-6	-21	-0.8	-1.8%
COc1ccc(/C=C/C(=O)c2ccc(Cl)s2)cc1O	-2	-1.1	3	2	-4.6	-5.0%
CCn1cc(CNc2nc3nonc3nc2N2CCCCC2)cn1	2	-0.2	-3	-7	-0.7	1.3%
